High-throughput results: PubChem, several laboratories
Bfl-1 A1 inh: inhibitors of the anti-apoptotic protein A1, read as caspase activation | MEF A1-2A-BIM cells, Caspase-Glo 3/7 luminescence, 3 h; percent of clofoctol response, vehicle zero | caspase activation, % (test concentration not listed) | 330,000 tested, 0.066% active;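 active = over half of replicate activation scores above 10%, or exactly half above 10 with the replicate mean above 10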;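 also: wells of about 30 µL received 50 nL stock; many hits fall short of the cut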
LANA-H2B inh: blocks KSHV LANA binding to histone H2A/H2B | Q9QR71 | cell-free LANA-H2A/H2B peptide, fluorescence polarization | inhibition, % (test concentration not listed) | 320,000 tested, 0.6% active | AID 2629; in the data active = inhibition mostly above about 10%, no sharp cut-off; inactive = mostly below about 6.7%;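 also: stock transfer was 7.5 nL into about 10 µL; 0% = median of vehicle wells and 100% = median of positive control wells; one replicate is shown; the record names a cut of 25% in any replicate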
ALR inh: inhibitors of human sulfhydryl oxidase ALR | P55789 | purified ALR, DTT oxidation, H2O2 HRP-luminol luminescence | inhibition, % (concentration not given with the values) | 290,000 tested, 3.8% active | AID 485317;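 active = mean and each replicate at 75% or more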;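 also: stock transfer was 7.5 nL into about 7.5 µL; 0% = neutral wells and 100% = wells with inactivated enzyme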
Beta apoptosis: beta cell apoptosis inhibition | protection from apoptosis, % (no concentration beside the values) | INS-1E cytokine-induced death, ATP luminescence, 48 h; percent of positive-control rescue, neutral wells zero | AID 435005 | 300,000 tested, 0.8% active;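 active = all replicates at 75% or more, or half of them and the mean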;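 also: 0% = cytokine-treated negative control wells and 100% = positive control rescue; higher means more ATP so stronger rescue from cytokine killing; wells of about 40 µL received 100 nL stock; the first replicate is given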
B2AR ag: agonists of human beta-2 adrenergic receptor inducing internalization; P07550; Am2.2-beta2AR cells, FAP receptor internalization, flow cytometry; reference of the scale not given here; response, % (test concentration not listed); 340,000 tested, 0.43% active; AID 504454;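 active = response above a set limit, near 3 SD of response in nonfluorescent compounds, cut at about 42% in these data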;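 also: stock transfer was 100 nL into about 11 µL; a reference agonist was the positive control; negative values mostly stem from fluorescent compounds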
* hit, by the source's call.

SMILES	Bfl-1 A1 inh	LANA-H2B inh	ALR inh	Beta apoptosis	B2AR ag
CC[C@@H]1C(=O)OC[C@@H]1Cc1cncn1C	0.0	0.2	-1	-5	-1

This is a subset; the hit share may differ from the screen's.
